# Assay outcomes as filed in PubChem BioAssay.
# Bead autofluor = counter-screen for toxin protease inhibitors: compound fluorescence | compound autofluorescence counterscreen, microsphere flow cytometry; active compounds read high | fluorescence intensity (concentration not given with the values) | 360,000 tested, 3.1% active | AID 624483;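 active = at least 3 SD above the mean of all compounds, about 16000 in these data; inconclusive = too few beads counted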;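 also: 100 nL of 1 mM stock went into each well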
# PrP 5UTR inh = inhibition of PrP 5' UTR reporter expression | cell-based PrP 5' UTR mRNA reporter, plate reader | inhibition, % (concentration not given with the values) | 340,000 tested, 0.35% active | AID 488862;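 active = every replicate at 50% or more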;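 also: 0 = median of the neutral control wells; tested in H4 reporter cells; numbers are from one replicate; inactives centre near -14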
# The depositor's hits bear a star; ? = inconclusive. An excerpt. The share of hits here may be higher or lower than overall.
SMILES,Bead autofluor,PrP 5UTR inh
C[C@H](CO)N1C[C@H](C)[C@@H](CN(C)C(=O)NC2CCCCC2)Oc2ccc(NC(=O)NC3CCCCC3)cc2C1=O,3502,-16.3
CN(C(=O)c1ccc(Cl)cc1)C1CCS(=O)(=O)C1 (stereo unspecified),3613,-2.1
Cc1cc(C(C)(C)C)ccc1Oc1cccc2c1S(=O)(=O)N(C1CCCC1)CC(COCc1ccccc1)O2 (stereo unspecified),3215,-16.9
O=C(O)C1OC(C(=O)O)C(C(=O)O)C1C(=O)O (stereo unspecified),2908,-27.3
COC1OC2COC(c3ccccc3)OC2C(=O)C1NC(=O)c1ccccc1 (stereo unspecified),3859,-7.2
C[C@H](CO)N1C[C@H](C)[C@@H](CN(C)C(=O)Nc2ccc3c(c2)OCO3)Oc2ccc(NC(=O)CCC(F)(F)F)cc2C1=O,3981,-14.2
C=CCn1c(COc2cccc(C)c2)nnc1SCC(=O)c1c(N)n(C)c(=O)n(C)c1=O,4256,-16.0
O=C(CN1C(=O)NC(Cc2ccccc2)C1=O)Nc1ccc(OC(F)(F)F)cc1 (stereo unspecified),3983,-5.0
O=C(Nc1cccc(C(=O)N2CCCCC2)c1)c1ccccc1,3799,-20.6
CC(C)(C)OC(=O)C[C@H]1C/C=C\C[C@@H](CC(=O)N(CCO)Cc2ccccc2)C(=O)N2CCC[C@@H]2COC1=O,3838,1.4
Cc1ccc(/C=N/Nc2ccc3ccccc3n2)o1,3118,-15.3
O=c1nc(NO)ccn1C1CCCO1 (stereo unspecified),3454,-7.0
O=C1NC(=S)NC(=O)C1Cc1ccccc1O,3457,-13.7
NC(=O)NN=C1CCn2cccc21,2862,-1.3
CN(C)S(=O)(=O)c1cccc(NC(=O)COc2ccccc2C(=O)NCc2ccccc2)c1,?,-8.6
C=CCC[C@H](Cc1ccc(F)cc1)C(=O)OC[C@H](C)NC(=O)[C@@H](CC=C)CC(=O)N[C@H](CO)Cc1ccccc1,3602,4.2
O=C1C=C(c2ccc3[nH]ccc3c2)C[C@@H](c2ccc(F)cc2)C1,3667,-51.4
OC(COc1ccccc1)CN1CCN(c2cccc(Cl)c2)CC1 (stereo unspecified),3250,-13.1
CCN1C[C@@H]2[C@@H]3C(=O)N(Cc4ccccc4)C(=O)[C@@H]3[C@](C)(C1=O)N2C(=O)c1ccc(Br)cc1,3653,-7.5
O=[N+]([O-])c1ccc(COc2ccc(CN3CCCCC3)cc2)cc1,2950,-64.0
Cc1cccc(C)c1NC(=O)COC(=O)c1cc(S(=O)(=O)Nc2ccc(Cl)cc2)ccc1O,6692,-6.8
CC(C)(C)OC(=O)N(CCc1ccccc1)Cc1cccc(OCc2cccc(NC(=O)C3CCC3)c2)c1,3855,-14.2
CCN(CC)CCCNc1ccc2ncn3c4ccc(O)cc4c(=O)c1c23,3283,36.0
O=C(NCCc1ccccc1F)C1CC(=O)N(c2cccc(C(F)(F)F)c2)C1 (stereo unspecified),5661,0.6
S=c1[nH]ccc2ccccc12,3934,-5.2
CCOC(=O)/C=C/[C@H]1CC(c2ccccc2)(c2ccccc2)CO1,3434,-11.3
O=C(NCCCc1ccccc1)c1cccc(NC(=O)c2ccccc2)c1,3770,-23.8
Cc1ccc(S(=O)(=O)N2CCN(C3CC(=O)N(c4ccc(F)cc4)C3=O)CC2)cc1C (stereo unspecified),3016,-30.7
O/N=C(\Cn1ccnc1)c1ccccc1,3520,-21.3
Cc1cc(C(=O)N/N=C/c2cc(Br)ccc2OC(=O)c2ccccc2)n[nH]1,2799,-0.2
CC(C)(C)OC(=O)N(CCc1ccccc1)Cc1ccccc1OCc1ccc(NC(=O)C2CCC2)cc1,2922,-13.5
COC(=O)c1ccc2cc(OC)cc([N+](=O)[O-])c2n1,3664,-16.2
O=S(=O)(CCN1CCCC1)NCCNS(=O)(=O)c1ccc(F)cc1Br,2950,-29.5
Cc1ccc(Cl)cc1NC(=O)C(=O)N/N=C/c1ccc2c(c1)OCO2,9056,-8.3
C=CCC[C@@H](Cc1ccc(F)cc1)C(=O)OC[C@@H]1CCCN1C(=O)[C@H](CC=C)CC(=O)N[C@H](CO)Cc1ccccc1,3644,-23.5
COC1=CC(=O)OC(CCc2ccc3c(c2)OCO3)C1 (stereo unspecified),5755,-16.6
CC(C)(C)[C@@H]1COC(=O)[C@@H](Cc2ccc(F)cc2)CC/C=C\C[C@@H](CC(=O)N(CCO)Cc2ccccc2)C(=O)N1,3854,-18.6
O=C1NC2C(O)C(O)C(O)C(O)C2c2cc3c(c(O)c21)OCO3 (stereo unspecified),3985,61.0*
O=C1C=C(c2c(O)ccc3ccccc23)c2ccccc2C1=O,4403,-25.2
O=S(Cc1ccccc1)c1ccccc1 (stereo unspecified),3532,28.9
CC(C)C(=O)Nc1cccc(COc2ccc(CN(CCc3ccccc3)C(=O)OC(C)(C)C)cc2)c1,3783,-27.2
O=C(NC1C/C=C\C(c2ccccc2)N(c2ccccc2)C(=O)C1)OCC1c2ccccc2-c2ccccc21 (stereo unspecified),3201,-24.4
COC(=O)C1=C(c2cccc(OCc3ccccc3)c2)C[C@@H]2CC[C@H]1N2C(=O)NCc1ccc(N(C)C)cc1,3748,-25.8
CC1CCC2(CC1)NC(=O)N(CC(=O)Nc1ccc3c(c1)OCO3)C2=O (stereo unspecified),3774,-27.5
C[C@@H]1CN([C@H](C)CO)C(=O)c2cc(NC(=O)Cc3cn(C)c4ccccc34)ccc2O[C@H]1CN(C)C(=O)Nc1ccc2c(c1)OCO2,3099,-23.6
CSc1nsc(/C=C/Nc2cccc(Cl)c2)c1C#N,3132,-1.0
CCOC(=O)[C@H]1[C@H]2COc3ccccc3[C@@H]2N2C(=O)[C@@H](C)NC(=O)[C@@]12C,3596,-4.4
CCN1C(=O)[C@@H]2[C@@H](c3ccc(SC4CCCCC4)c(OC)c3)N3CCC[C@@]3(C(=O)OC)[C@@H]2C1=O,4728,-9.5
N#C/C(=C\c1ccc(O)c(O)c1)C(=O)N1CCc2ccccc21,6608,-12.8
OCC1OC(n2cnc3c(N4CCCCC4)ncnc32)C(O)C1O (stereo unspecified),3459,-16.7
O=C(Nc1ccc(C(=O)N2CCCC2)cc1)C1CCC1,3851,-14.5
Cc1ccc(S(=O)(=O)N2CCN(C(=O)C3CCN(c4ncnc5sc(C)c(C)c45)CC3)CC2)c(C)c1,2932,13.0
OC(CC(O)c1ccccc1)c1ccccc1 (stereo unspecified),5776,-9.7
CN(C)C(=S)NC(=S)Nc1ccc2ccccc2c1,3715,-80.4
Cc1ccccc1/C=N/NC(=O)c1ccc(-n2cnnn2)cc1,5587,-2.2
C[C@H](CO)N1C[C@H](C)[C@@H](CN(C)S(C)(=O)=O)Oc2c(NC(=O)c3ccncc3)cccc2C1=O,4184,-5.1
COCCn1c(=NC(=O)CSCC(=O)NC2CCCCC2)sc2cc(OC)ccc21,15716,-11.8
NNC(=O)c1nnsc1-c1csnn1,3653,-14.8
COC(=O)C1=C(c2ccc(F)cc2F)C[C@@H]2CC[C@H]1N2C(=O)N1CCC(C)CC1,4250,-20.8
C=C(CN(C)C)C(=O)c1ccc(C)cc1C,3960,-27.5
# Continuation:
SMILES,Bead autofluor,PrP 5UTR inh
CC1OC(OC2C(O)CC(OC3C(O)CC(OC4CCC5(C)C(CCC6C5CCC5(C)C(C7=CC(=O)OC7)C(O)CC65O)C4)OC3C)OC2C)CC(O)C1O (stereo unspecified),4135,93.7*
O=c1[nH]c(-c2ccc(-c3cccc(Cl)c3)o2)nc2ccccc12,3956,-13.1
COC(=O)C1=C(c2cccc(OCc3ccccc3)c2)C[C@@H]2CC[C@H]1N2C(=O)NCc1ccc2[nH]ccc2c1,2976,-10.4
CCOC(=O)Nc1nc2ccc(Cn3cccc3)cc2[nH]1,4013,-30.5
CC(C)(C)[C@@H]1CCC(=O)N(CC[C@H](Sc2ccc(Br)cc2)c2ccccc2)CC1,3857,-8.9
Cc1ccc2c(c1)C(=O)C(=O)N2c1ccc(Cl)cc1,3791,-9.5
COc1ccc(-c2oc3ccccc3c2C#Cc2cncn2C)cc1,3172,-20.4
O=S(=O)(NN=Cc1ccc(O)cc1O)c1cc(Cl)c(Cl)cc1Cl,2963,-12.8
COc1ccc([C@H]2CC(=O)C=C(c3cc(Cl)ccc3OC)C2)cc1,4397,-5.4
CN=C(N)NCCC[C@H](N)C(=O)O,5710,-10.4
COC(=O)C1=C(c2ccc(F)cc2F)C[C@@H]2CC[C@H]1N2C(=O)N1CCCC1,4136,-19.1
C[C@H](CO)N1C[C@H](C)[C@@H](CN(C)C(=O)Nc2ccc(C(F)(F)F)cc2)Oc2c(NC(=O)NC3CCCCC3)cccc2C1=O,3522,-20.2
COc1ccc(CNCCCn2cnc3c(OCc4ccccc4)ncnc32)cc1,3290,-10.7
C=CC[C@H](CC(=O)N(CCO)Cc1ccccc1)C(=O)NCCOC(=O)[C@@H](CC=C)Cc1ccc(F)cc1,3896,-58.1
C[C@H]1CN([C@@H](C)CO)C(=O)Cc2cc(NC(=O)CCC(F)(F)F)ccc2O[C@H]1CN(C)Cc1ccc(-c2ccccc2)cc1,2977,-8.6
Cc1cc(N=Nc2ccccc2)cc(C)c1NC(=O)C(F)(F)F,2938,-64.6
Cc1cc2c(SCC(=O)Nc3ccccc3O)ncnc2s1,3351,-10.6
Cc1ccc(S(=O)(=O)N(C)CC(=O)NNC(=O)CCNS(=O)(=O)c2cccc(C)c2)cc1,2931,-6.4
CC(C)C[C@H]1CNC(=S)N1CC1CCCN1C[C@H](Cc1ccc(O)cc1)N1C[C@H](Cc2ccccc2)N(CC2CCCCCC2)C1=S (stereo partly specified),3539,-30.8
COC(=O)C1=C(c2ccc(F)cc2OCc2ccccc2)C[C@@H]2CC[C@H]1N2C(=O)NCCN1CCOCC1,2971,-0.9
CCOC(=O)Nc1ccc(OC(=O)Oc2ccc(NC(=O)OCC)cc2)cc1,3468,3.1
NC(=Nc1nc(-c2ccccn2)cc2ccccc12)c1ccccn1,3630,36.4
CNC[C@H]1Oc2c(NS(=O)(=O)c3cccs3)cccc2C(=O)N([C@H](C)CO)C[C@@H]1C,4024,-13.3
CC1(c2ccccc2)CC(c2ccccc2)=C(C#N)C(=O)N1 (stereo unspecified),3518,4.2
C/C(CC(=O)NC1CCCC1)=N\NC(=O)c1ccc([N+](=O)[O-])c(Cl)c1,2321,-20.6
Cc1cc([N+](=O)[O-])c(=O)[nH]c1C,3665,-16.5
COC(=O)C1=C(c2ccc(OC)c(OC)c2)C[C@@H]2CC[C@H]1N2C(=O)N1CCc2cc(OC)c(OC)cc2C1,3694,-16.4
CC1=CC(O)C(O)C2(C)C1CC1OC(=O)C(O)C3C(C)C(O)C4(O)OCC13C42 (stereo unspecified),3323,-20.6
Cn1cnnc1SCc1ccc(C(=O)N/N=C(\CCC(=O)O)c2ccc(C(C)(C)C)cc2)cc1,8939,-17.4
C=CCC[C@@H](Cc1ccc(F)cc1)C(=O)OC[C@@H]1CCCN1C(=O)[C@@H](CC=C)CC(=O)N(CCO)Cc1ccccc1,3885,-16.0
COc1ccc2c(c1)OC[C@H]1[C@H]2N2C(=O)CN(CC3CCCO3)C(=O)[C@@]2(C)[C@H]1c1ccccc1 (stereo partly specified),2905,1.3
CCOCC(=O)NC1CCc2cc(OC(=O)COCC)c(OC)c(OC)c2-c2ccc(SC)c(=O)cc21 (stereo unspecified),3718,36.4
COC(=O)C1=C(c2ccc(F)cc2F)C[C@@H]2CC[C@H]1N2C(=O)NCCOc1ccccc1Cl,3609,-15.2
COC(=O)Nc1ccc(S(=O)(=O)N2CCCC(C(=O)NCC3CCCO3)C2)cc1 (stereo unspecified),3743,-25.2
COc1ccc([C@H]2CC(=O)C=C(c3ccc(OC)nc3)C2)cc1,4072,-7.2
Cc1ccccc1CN(C)C(=O)[C@H](Cc1ccccc1)NC(=O)c1ccco1,3123,-10.7
CC(C)CCOc1ncnc2c1sc1nc3c(cc12)CSC(C)(C)C3,4403,-33.2
Cc1cc(C)c(C)c(S(=O)(=O)N2CCC(C(=O)N3CCN(c4ccc(F)cc4)CC3)CC2)c1C,3373,5.0
O=C(O)c1ccccn1,5542,-18.3
COc1ccc([C@H]2CC(=O)C=C(c3cccc(Br)c3)C2)cc1OC,4138,-9.9
COc1cccc(-c2ccc3c(c2)C2CC3CCN2C(=O)c2ccc(Cl)cc2)c1 (stereo unspecified),3373,-11.4
COc1cc(OC)nc(/N=C/N(C)C)n1,3303,-9.1
